# Source: PubChem (several laboratories)
# rRNA inh HTS – selective bacterial rRNA inhibition in E. coli | E. coli WT GFP vs humanized-ribosome RFP mutants, fluorescence, 24 h; active compounds read low; DMSO median 0, no signal -100 | 350,000 tested, 1.6% active | AID 720706 | GFP signal change (wild-type ribosome), % (concentration not given with the values);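 active = significant combined selectivity score with lowered wild-type GFP, culture density cut under 30%, mutant RFP and density less affected; inactive = any of these conditions unmet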; also: one replicate is shown; some compounds called inactive have numbers as strong as hits
# UCH37 DUB inh – inhibitors of human deubiquitinating enzyme UCH37. inhibition, % (test concentration not listed). AID 588478. purified proteasome/UCH37, Ub-AMC cleavage fluorescence. 330,000 tested, 0.33% active. Q9Y5K5;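 active = mean of two replicates above 20%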;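 also: 0% = compound-free wells with enzyme and 100% = wells lacking proteasome; stock transfer was 100 nL into about 20 µL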
#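 Signal – fluorescence, ex 355 nm, em 460 nm · System – Proteasome-bound UCH37 · Input – 0.15 nM proteasome as dispensed · Timing – 30 min preincubation with enzyme, 25 min cleavage at room temperature · Read-out basis – percent inhibition of cleavage signal versus uninhibited and no-proteasome wells · Medium – Tris-HCl pH 7.4 with ATP-MgCl2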
# FGF22 binding – FGF22 (human) thermal shift binding; Q9HCT0; calls only at 9.99 µM; recombinant FGF22 thermal shift, SYPRO orange fluorescence; percent of sucrose octasulfate shift, DMSO zero; 340,000 tested, 1.5% active;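 active = melting point raised past a set limit in the mean and every replicate; three in four hits are not shown here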
# Target sequence (Q9HCT0 whole entry, looked up): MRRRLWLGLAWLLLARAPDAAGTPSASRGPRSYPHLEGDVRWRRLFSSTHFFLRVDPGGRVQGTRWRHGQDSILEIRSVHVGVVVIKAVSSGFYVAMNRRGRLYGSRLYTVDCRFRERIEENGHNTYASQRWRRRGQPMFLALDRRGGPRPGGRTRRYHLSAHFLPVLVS
# HNF4A DNA FP – change in binding of human HNF4 alpha to DNA | HNF4a-FITC DNA binding, fluorescence polarization, 1 h | activity change, % at 10 µM | 360,000 tested, 0.3% active | AID 1224865; in the data active = activity change above about 30%, passing the limit was not always enough;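 also: controls were the assay level and a saturating level of protein; the project sought stronger binding though the title names inhibitors; some compounds called inactive have numbers as strong as hits; positive values seem to mean higher polarization but the record does not say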
# Target sequence (P41235 whole entry, looked up): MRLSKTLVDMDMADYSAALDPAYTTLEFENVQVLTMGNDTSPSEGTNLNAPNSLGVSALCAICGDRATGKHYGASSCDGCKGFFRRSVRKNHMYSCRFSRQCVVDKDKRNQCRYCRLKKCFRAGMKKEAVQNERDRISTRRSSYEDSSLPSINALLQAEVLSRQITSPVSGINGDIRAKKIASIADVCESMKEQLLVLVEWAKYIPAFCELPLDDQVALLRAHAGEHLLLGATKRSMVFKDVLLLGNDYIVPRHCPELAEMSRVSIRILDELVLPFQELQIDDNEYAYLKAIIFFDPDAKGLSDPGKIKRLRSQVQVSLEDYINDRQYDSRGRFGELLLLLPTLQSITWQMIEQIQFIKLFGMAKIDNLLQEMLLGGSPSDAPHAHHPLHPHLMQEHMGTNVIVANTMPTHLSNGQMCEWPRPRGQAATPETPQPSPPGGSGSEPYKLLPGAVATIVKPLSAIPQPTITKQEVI
# B2AR ag – human beta-2 adrenergic receptor agonism by FAP; response, % (concentration not given with the values); Am2.2-beta2AR cells, FAP receptor internalization, flow cytometry; reference of the scale not given here; 340,000 tested, 0.43% active; P07550; AID 504454;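 active = response above a set limit, near 3 SD of response in nonfluorescent compounds, cut at about 42% in these data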;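 also: stock transfer was 100 nL into about 11 µL; a reference agonist was the positive control; negative values mostly stem from fluorescent compounds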
# Target sequence (P07550 whole entry, looked up): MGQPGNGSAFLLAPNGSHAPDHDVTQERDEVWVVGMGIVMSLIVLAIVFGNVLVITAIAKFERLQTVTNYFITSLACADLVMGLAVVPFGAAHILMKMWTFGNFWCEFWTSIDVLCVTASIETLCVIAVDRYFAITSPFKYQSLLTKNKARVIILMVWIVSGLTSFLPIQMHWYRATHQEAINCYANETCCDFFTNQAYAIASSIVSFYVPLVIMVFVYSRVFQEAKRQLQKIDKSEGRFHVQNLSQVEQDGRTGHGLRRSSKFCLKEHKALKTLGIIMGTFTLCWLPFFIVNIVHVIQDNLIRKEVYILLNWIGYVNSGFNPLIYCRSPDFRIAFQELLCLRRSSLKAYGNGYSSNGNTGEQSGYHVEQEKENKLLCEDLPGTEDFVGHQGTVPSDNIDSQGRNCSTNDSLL
# Ecoli growth – blocks Escherichia coli growth; OD600, 23 h; active compounds read low; OD600 absorbance (test concentration not listed); 330,000 tested, 0.21% active;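 active = OD600 absorbance below the run mean of sample wells minus 3.6 SD, in any replicate, cut at about 0.56 in these data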;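 also: stock transfer was 300 nL into about 60 µL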
# ALR inh – human ALR oxidase inhibition via reduced H2O2 | P55789 | purified ALR, DTT oxidation, H2O2 HRP-luminol luminescence | inhibition, % (test concentration not listed) | 290,000 tested, 3.8% active | AID 485317;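 active = mean and each replicate at 75% or more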;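 also: stock transfer was 7.5 nL into about 7.5 µL; 0% = neutral wells and 100% = wells with inactivated enzyme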
# rRNA inh HTS OD600 – recorded beside rRNA inh HTS, whose call it bears; OD600 change, %; measured here: OD600 growth;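 optical density of the mix in the first replicate; 0 = DMSO median and -100 = no signal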
# rRNA inh HTS RFP – further read-out of rRNA inh HTS, marked with its call; RFP signal change, %; measured here: RFP humanized mutant strains;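 first replicate; 0 = DMSO median and -100 = no signal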
# The depositor's hits bear a star; i = inactive; nt = no result given; & = joins results of further samples.
SMILES,rRNA inh HTS,rRNA inh HTS OD600,rRNA inh HTS RFP,UCH37 DUB inh,FGF22 binding,HNF4A DNA FP,B2AR ag,Ecoli growth,ALR inh
CN(C)/C=C1\N=C(c2ccc(Cl)cc2Cl)OC1=O,nt,nt,nt,-0.1,nt,1.4,-12,0.69,-2
CCc1nc2ccc(C(=O)NCCNC(C)=O)cn2c1N(C)CCCc1ccccc1,-5,-8,0.9,nt,i,1.0,nt,nt,nt
CC(C)C(=O)Nc1c(-c2cccc(Cl)c2)c(=O)c2ccccc2n1C,6,11,-1.4,4.6,i,1.3,-10,0.66,-5
CC(=O)C1CCC2C3CCC4CC(=O)CCC4(C)C3C(C)(O)CC12C (configuration not stated),nt,nt,nt,4.4,nt,3.1,13,0.7,nt
C/C=C(\C)C(=O)N1CC2(CC(c3cccc(NC(=O)CCCCC)c3)=NO2)C[C@@H]1C(N)=O (some centres not stated),5,12,-1.2,-0.1,i,-0.6,3,nt,nt
CC1CCN(Cc2nc3c(c(=O)n(C)c(=O)n3C)n2CCCc2ccccc2)CC1,nt,nt,nt,0.9,nt,0.5,-5,0.78,-5
CSc1nc(-c2ccc(C)cc2)nc(C(Cl)Cl)n1,nt,nt,nt,2.3,nt,-3.3,3,0.7,-5
O=[N+]([O-])c1cnn(-c2nc(-c3ccco3)cc(C(F)(F)F)n2)c1,9,5,-2.2,2.0,i,2.0,-6,0.68,-6
COc1ccc([C@H]2C[C@@H](n3cc(-c4ccc(F)cc4)nn3)[C@H](O)CN2CC2CCCCC2)cc1,-7,-5,-0.6,nt,i,-2.3,nt,nt,nt
C/C(=N\NC(=O)c1ccccc1O)C1C(=O)c2ccccc2C1=O,nt,nt,nt,nt,nt,-0.4,8,nt,98*
CCOC(=O)/C(C#N)=C/c1cn(CCC(=O)O)nc1-c1ccc(Br)cc1,0,4,1.2,2.2,i,-1.0,11,0.69,41
Cc1cccc(C(CC(=O)NCc2ccco2)c2ccccc2)c1O (configuration not stated),nt,nt,nt,0.7,i,1.1,0,0.64,31
C=CCCC(=O)N1C[C@H]2CON(C)[C@H]2C[C@H]1c1ccc(-n2ccnc2)cc1,27,23,3.8,nt,i,-1.7,nt,nt,nt
CN(C)c1nc(N2CCOCC2)nc(N(c2ccccc2)c2ccccc2)n1,nt,nt,nt,-1.3,nt,-2.1,5,0.7,nt
O=C(NCCN1CCOCC1)c1ccc(Cl)c(Cl)c1,21,16,2.7,-0.6,i,0.2,-7,0.69,-22
O=C(c1cccc(N2C(=O)c3ccccc3C2=O)c1)N1CCCCCC1,6,2,1.6,-0.6,i,-5.7,0,0.69,1
CCn1cc(C(=O)O)c(=O)c2cc(S(=O)(=O)N3CCCCCC3)ccc21,-2,5,0.7,3.8,i,-5.7,4,0.6,-1
O=C(CSC1=NCCN1)Nc1cccc([N+](=O)[O-])c1,-8,7,-3.5,12,i,1.6,-4,0.72,99*
COc1ccc(-c2nnn(CC(=O)N(Cc3cccs3)C(C)C(=O)NC3CCCC3)n2)cc1OC (configuration not stated),nt,nt,nt,3.0,nt,-1.7,0,0.75,-13
COc1ccc(Br)cc1CNC(C)c1ccccc1 (configuration not stated),nt,nt,nt,4.8,nt,0.9,-8,0.63,-37
O=C(c1ccc(F)cc1)C(CCCCCC(CN1CCOCC1)C(=O)c1ccc(F)cc1)CN1CCOCC1 (configuration not stated),nt,nt,nt,-0.2,nt,nt,nt,0.72,-8
CCCN1CCN(c2nc(-c3cccs3)nc3ccccc23)CC1,nt,nt,nt,0.9,nt,-2.5,-8,0.71,-2
CCN(C(=O)COC(=O)c1ccc(SC)cc1OC)C1CCS(=O)(=O)C1 (configuration not stated),9,15,-1.4,-2.3,i,1.1,-10,0.7,-5
NC(=O)CSc1nnc(Cc2csc(Nc3ccccc3)n2)n1Cc1ccccc1,-13,-24,-1.4,5.4,i,0.6,-12,0.66,79*
CCOC(=O)CCc1n[nH]c(=O)[nH]c1=O,nt,nt,nt,4.4,nt,0.2,-10,0.74,5
CCN1CCN(CCCNC(=O)CCC(=O)N2CCOc3ccccc32)CC1,10,11,-2.1,2.9,i,0.6,-3,0.79,3
O=C1NC(=NCc2ccccc2)S/C1=C/c1ccc(O)cc1,nt,nt,nt,4.1,nt,-1.9,10,0.65,94*
CO[C@@H]1CN(C)C(=O)c2cc(NC(=O)Nc3ccc4c(c3)OCO4)ccc2OC[C@@H](C)N(C)C[C@H]1C,6&12,3&8,2.6&1.1,nt,i,-3.7,nt,nt,nt
CN(C(=O)COC(=O)c1cccc(S(=O)(=O)N2CCOCC2)c1)C1CCS(=O)(=O)C1 (configuration not stated),nt,nt,nt,1.2,nt,1.6,-4,0.62,-1
O=C(Oc1ccccc1)c1cc2ccccc2oc1=O,8,12,2.3,-5.0,nt,-2.8,-3,0.7,nt
COc1ccc(NS(=O)(=O)c2ccc(SC)cc2)cc1,-8,-11,0.6,6.4,i,-0.9,-3,0.69,2
C/C(=N\NC(=S)NC(C)C)c1ccc(-n2ccnc2)cc1,nt,nt,nt,nt,nt,4.3,2,nt,2
O=C1/C(=C/c2ccc(C(=O)O)cc2)CCC/C1=C\c1ccc(C(=O)O)cc1,nt,nt,nt,15,nt,-4.5,-4,0.69,13
CCn1c(Cc2ccccc2)nnc1SCC(=O)Nc1ccc(OC)cc1,nt,nt,nt,0.7,nt,0.4,-5,0.7,-1
CC(=O)NC(CCS(C)(=O)=O)C(=O)Nc1cccc(C(C)=O)c1 (configuration not stated),nt,nt,nt,1.3,nt,3.2,-6,0.68,-4
Cc1ccccc1NC(=O)N1CCN(c2ncccn2)CC1,3,8,2.2,-0.3,i,1.9,9,0.66,-4
COc1ccccc1-n1cnnc1SCc1csc(-c2ccccc2)n1,nt,nt,nt,4.5,nt,0.2,1,0.7,-13
COc1ccc(NC(=O)C(C)SCc2ccccc2)cc1OC (configuration not stated),-1,11,-2.3,-1.2,i,0.6,1,0.69,-7
COc1ccccc1N1CCN(C(=O)C(=O)c2c(C)[nH]c3ccccc23)CC1,-2,-5,3.1,3.9,i,2.2,-4,0.69,7
O=C(/C(N=Nc1cccc(C(F)(F)F)c1)=C(/O)c1cccs1)C(F)(F)F,nt,nt,nt,5.5,i,4.1,12,0.64,40
Cn1c(SCC(=O)N2CCN(c3ccccc3)CC2)nnc1-c1ccncc1,nt,nt,nt,2.9,nt,-0.5,-1,0.72,39
NC(c1csc(Nc2ncccn2)n1)C1CCCCC1 (configuration not stated),13,18,0.3,nt,i,-0.2,nt,nt,nt
CCC(=O)c1ccc(OCC(=O)OCC(=O)N2c3ccccc3NC(=O)C2(C)C)cc1,-1,9,-2.1,4.2,i,-5.7,2,0.65,-6
CCCCCCCC(=O)NNC(=O)c1ccc(F)cc1,nt,nt,nt,-0.1,nt,-0.3,-2,0.64,-1
Clc1ccc(-c2c[n+](Cc3cccc(Cl)c3)c3n2CCC3)cc1,-55,-80,-35,6.1,i,5.7,-3,0.64,-61
CC(C)(C)c1ccc(SCC(N)=O)cc1,nt,nt,nt,-1.2,nt,-1.6,-6,0.78,-19
NS(=O)(=O)c1ccc(CCNC(=O)c2cc([N+](=O)[O-])ccc2N2CCCCC2)cc1,-17*,-1.1*,6.4*,nt,i,-2.2,-9,nt,41
Cc1cc(=O)oc2cc(OCC(=O)OC(C)C(=O)Nc3ccc(S(N)(=O)=O)cc3)ccc12 (configuration not stated),5,4,-1.4,-31,i,3.8,0,0.65,-4
O=C(COc1ccc(Cl)cc1)NNC(=O)c1ccccc1C(=O)O,6,5,0.5,1.8,i,-0.2,1,0.71,1
O=C(Nc1ccc(N2CCCCC2)cc1)c1cc(S(=O)(=O)N2CCOCC2)ccc1F,8,13,2.9,-2.5,i,-0.8,7,0.7,40
# (cont.)
SMILES,rRNA inh HTS,rRNA inh HTS OD600,rRNA inh HTS RFP,UCH37 DUB inh,FGF22 binding,HNF4A DNA FP,B2AR ag,Ecoli growth,ALR inh
O=C(NNC(=O)C1CCN(c2ncccn2)CC1)c1ccc(F)cc1,2,15,2.1,-6.1,i,0.4,12,0.67,-1
FC(F)(F)c1cc(-c2cccs2)nc(N2CCOCC2)n1,nt,nt,nt,-2.5,nt,2.3,0,0.76,-2
CC(C)[C@H](NS(=O)(=O)c1ccccc1)C(=O)OCc1cc([N+](=O)[O-])cc2c1OCOC2,-2,-5,1.8,5.8,i,-0.1,-2,0.69,nt
CC(=O)Nc1scc(C)c1-c1nc2ccccc2s1,8,-1,22,-8.5,i,3.5,13,0.68,-15
CC1(C)C(=O)Nc2ccccc2N1C(=O)COC(=O)c1cccnc1Cl,7,7,-1.7,1.2,i,0.9,3,0.71,-5
CCn1c(SCc2c(Cl)cccc2Cl)nnc1-c1nn(-c2ccccc2)ccc1=O,nt,nt,nt,3.0,nt,0.6,-12,0.71,-2
Cc1cc(C)cc(NC(=O)CCN2C(=O)c3ccccc3C2=O)c1,3,11,-0.7,-0.9,i,0.2,2,0.7,-6
CCOC(=O)C1=C(N)n2c(s/c(=C\c3ccco3)c2=O)=C(C(=O)OCC)C1c1ccco1 (configuration not stated),4,11,13,nt,i,-0.4,23,nt,-3
CC(=O)C1=C(O)C(=O)N(c2ccccn2)C1c1ccccc1[N+](=O)[O-] (configuration not stated),3,12,-0.4,11,i,3.0,1,0.71,-7
COc1ccc(C(=O)NCC(=O)NCc2ccc3c(c2)OCO3)cc1[N+](=O)[O-],1,8,4.2,nt,i,0.6,nt,nt,nt
Cc1cc(C)cc(NC(=O)Nc2ccc(NC(=O)c3ccccc3O)cc2)c1,2,8,1.0,-1.1,i,3.0,7,0.7,0
Nc1cc(=O)[nH]c(SCC(=O)Nc2ncc(C(F)(F)F)cc2Cl)n1,-3,4,-1.0,3.0,i,-6.7,-8,0.69,-1
Cc1ccc(N2CC(c3nc4ccccc4n3C)CC2=O)cc1 (configuration not stated),-17,-15,-0.8,2.6,i,4.2,-1,0.62,nt
CC(C)(C)c1ccc(C(=O)NC(=O)COC(=O)c2ccco2)cc1,6,7,-0.1,-0.3,i,6.7,-5,0.71,nt
Cc1ccc(N(O)C(C)(C)C)cc1,21,22,8.5,nt,i,-1.7,4,nt,nt
COc1ccc(-c2[nH]c(-c3ccccc3)nc2SCC(=O)NCc2ccco2)cc1OC,0,3,-2.5,-8.7,i,-2.1,-12,0.72,72
COC(=O)c1ccc(NC(=O)CCN2C(=O)C3CC=CCC3C2=O)cc1 (configuration not stated),-1,5,-2.2,nt,i,-2.2,2,nt,0
Cc1cccc(NC(=O)COc2ccccc2C(=O)NC(C)c2ccccc2)c1 (configuration not stated),nt,nt,nt,3.3,nt,3.0,5,0.71,nt
CC(C)CCN1CCN(Cc2cnc(N3CCCC3)s2)CC1CCO (configuration not stated),11,10,-12,0.0,i,-2.0,2,0.75,nt
COc1ccc(C(C(=O)NC2CCCC2)N(C(=O)c2snc(-c3ccc(F)cc3)c2N)c2ccc(OC)cc2)cc1 (configuration not stated),nt,nt,nt,-12,nt,-1.2,-5,0.73,-3

# Structures above shown as hits in ALR inh:
SMILES,rRNA inh HTS,rRNA inh HTS OD600,rRNA inh HTS RFP,UCH37 DUB inh,FGF22 binding,HNF4A DNA FP,B2AR ag,Ecoli growth,ALR inh
C/C(=N\NC(=O)c1ccccc1O)C1C(=O)c2ccccc2C1=O,nt,nt,nt,nt,nt,-0.4,8,nt,98*
O=C(CSC1=NCCN1)Nc1cccc([N+](=O)[O-])c1,-8,7,-3.5,12,i,1.6,-4,0.72,99*
NC(=O)CSc1nnc(Cc2csc(Nc3ccccc3)n2)n1Cc1ccccc1,-13,-24,-1.4,5.4,i,0.6,-12,0.66,79*
O=C1NC(=NCc2ccccc2)S/C1=C/c1ccc(O)cc1,nt,nt,nt,4.1,nt,-1.9,10,0.65,94*

# Only part of the results is shown; the hit share may differ from the screen's.
